TRPML1 blocker: qHTS for Inhibitors of the Human Mucolipin Transient Receptor Potential 1 (TRPML1) | Mucolipin-1 (Homo sapiens), Q9GZU1 | TRPML1-inducible cells, Ca2+ dye fluorescence, FDSS; hits give low values; inhibition of EC80 agonist-evoked calcium signal | activity change, negative = inhibition, % (concentration not given with the values) | 390,000 tested, 0.02% active; in the data active means activity change below about -50%; inconclusive means about -30% to -50%; inactive means above about -30%;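 also: stimulus is agonist 54-4 at its EC80 concentration; % is scaled to controls: 0 for no effect and ±100 for the full control effect; compound concentration not given in the record; the text of the record puts the active cut at -80%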
Target sequence (Q9GZU1 whole entry, looked up): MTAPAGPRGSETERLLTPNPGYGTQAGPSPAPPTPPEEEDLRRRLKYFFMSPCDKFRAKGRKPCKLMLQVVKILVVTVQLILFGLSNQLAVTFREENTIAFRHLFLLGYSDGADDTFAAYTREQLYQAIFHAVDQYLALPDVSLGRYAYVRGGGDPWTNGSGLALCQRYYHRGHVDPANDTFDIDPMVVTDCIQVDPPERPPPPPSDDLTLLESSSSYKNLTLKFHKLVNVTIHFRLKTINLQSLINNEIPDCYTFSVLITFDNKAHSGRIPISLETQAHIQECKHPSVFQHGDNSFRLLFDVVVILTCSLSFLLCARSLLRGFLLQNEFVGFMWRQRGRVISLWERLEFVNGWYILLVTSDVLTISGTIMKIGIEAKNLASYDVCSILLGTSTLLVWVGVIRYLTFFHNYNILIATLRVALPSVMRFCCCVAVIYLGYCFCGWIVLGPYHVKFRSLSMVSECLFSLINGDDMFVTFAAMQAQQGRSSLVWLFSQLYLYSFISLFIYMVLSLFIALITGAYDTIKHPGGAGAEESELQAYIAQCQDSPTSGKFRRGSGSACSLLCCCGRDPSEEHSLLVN
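Calcium fluorescence in TRPML1-DL cells induced overnight with Tet: a 110 s read after compound pin addition, then a 110 s antagonist read after challenge with 54-4 at 4 uM final (EC80).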
PINK1 expr mod: A Quantitative High throughput Screen to Identify Chemical Modulators of PINK1 Expression; 410,000 tested, 0.2% active; Potency, µM (highest dose often 76.6 µM), without a hit: top-dose activation (PINK1 increase), most hits filed as activators; AID 624263, 2012; PINK1 immunofluorescence, high-content cytometry, 24 h; active = well fitted activation curve with a large enough effect; inconclusive = small, poorly fitted or top-dose-only effect; inactive = flat fitted curve, though single readings scatter; cell line not stated here;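 also: potency is read from the fitted curve at half-maximal effect; % of control where 0% means no effect; nearly all actives have a fitted effect of over 65% in size; a mitochondrial uncoupler was the plate control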
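Compound titrations (5 concentrations, 24 h) on a stable cell line; DMSO and CCCP controls. Endpoint: fixed-cell PINK1 immunofluorescence with mitochondrial, cell and nuclear markers, scanned by microplate cytometer.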
D2 ag: Beta-Arrestin HTS for Positive Allosteric Modulators of the Human D2 Dopamine Receptor: Agonists; DiscoveRx PathHunter D2 beta-arrestin, luminescence, 90 min; 100% = 57 uM dopamine signal; activation, % (no concentration beside the values); 360,000 tested, 0.084% active; AID 624465, 2012; in the data active = activation above about 40%; inconclusive = about 15% to 40%; inactive = below about 15%; also: compound concentration not given in the record; the text of the record calls up to 30% inactive
Target sequence (P14416 whole entry, looked up): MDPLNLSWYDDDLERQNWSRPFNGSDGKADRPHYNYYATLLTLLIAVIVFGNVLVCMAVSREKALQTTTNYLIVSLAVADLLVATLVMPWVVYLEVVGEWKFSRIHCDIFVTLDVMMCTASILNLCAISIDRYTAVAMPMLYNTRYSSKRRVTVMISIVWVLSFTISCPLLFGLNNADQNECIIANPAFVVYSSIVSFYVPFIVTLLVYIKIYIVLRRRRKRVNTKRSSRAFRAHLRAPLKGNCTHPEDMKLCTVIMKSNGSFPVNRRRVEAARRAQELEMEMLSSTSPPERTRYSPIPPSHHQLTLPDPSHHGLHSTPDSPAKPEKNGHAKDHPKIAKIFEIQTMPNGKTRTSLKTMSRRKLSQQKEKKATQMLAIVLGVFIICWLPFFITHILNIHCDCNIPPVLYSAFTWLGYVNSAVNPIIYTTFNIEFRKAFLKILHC
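DiscoveRx PathHunter D2 beta-arrestin cells (2,100/well) attached overnight, then compound-stimulated 90 min at 37 C in HBSS/10 mM HEPES/0.1% Tween-20 buffer; beta-galactosidase complementation read by luminescence after 1 h at ambient temperature. Dopamine 57 uM final (EC100) as control.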
TRPML1 agonist: qHTS for Agonists of the Human Mucolipin Transient Receptor Potential 1 (TRPML1). 410,000 tested, 0.12% active. activation, % (no concentration beside the values). TRPML1-expressing cells, Ca2+ dye fluorescence, FDSS; host cell line not named in the record; reference of the full effect not given here. Mucolipin-1 (Homo sapiens), Q9GZU1; in the data active = activation above about 50%; inconclusive = about 30% to 50%; inactive = below about 30%; also: 0% is about no effect; the text of the record puts the active cut at 80%
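TRPML1-DL cells, Tet-induced overnight (~16 h, 37 degrees C), loaded 45-90 min at room temperature with Ca8 no-wash calcium dye plus quencher. FDSS fluorescence: 10 s baseline, compound pin-transfer, 110 s agonist read, then EC80 54-4 (4uM final) and 110 s antagonist read.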
Six1-Eya2 inh: qHTS Assay for Inhibitors of the Six1/Eya2 Interaction; Homeobox protein SIX1 (Homo sapiens) + Protein phosphatase EYA2 (Homo sapiens), …; AlphaScreen GST-Six1/His-Eya2 binding, biochemical; hits give low values; control for the full effect not named in the record; activity change, % (concentration not given with the values); 360,000 tested, 0.56% active; AID 651725, 2012; in the data active = activity change below about -65%; inconclusive = about -30% to -65%; inactive = above about -30%; also: % is scaled to controls: 0 for no effect and ±100 for the full control effect
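Homogeneous AlphaScreen proximity assay pairing GST-Six1 with His-tagged Eya2 (added as 5X mix: 250 nM and 500 nM) in 50 mM Tris pH 8.0, 300 mM NaCl, 1 mM TCEP. Glutathione donor and nickel acceptor beads; 1 h, 37 °C, dark.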
D2 PAM: Beta-Arrestin HTS for Positive Allosteric Modulators of the Human D2 Dopamine Receptor: Potentiators. 360,000 tested, 0.23% active. D(2) dopamine receptor (Homo sapiens), P14416. AID 624464, 2012. potentiation, % (concentration not given with the values). DiscoveRx D2 beta-arrestin cells, luminescence, 90 min; 100% = 57 uM dopamine signal; active = potentiation of 50% or more; inconclusive = 30% to 50%; inactive = 30% or less;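 also: compound concentration not given in the record; tested on top of an EC20 dose of dopamine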
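PathHunter D2 cells, attached overnight at 37 deg C, received compound in DMSO plus dopamine at EC20 (50 nM final) for 90 min at 37 deg C. Beta-arrestin recruitment was read as luminescence after 1 h with detection reagent at ambient temperature.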
* hit, by the source's call; u = inconclusive; x = no result given; & = joins results of further samples; [ ] = remark or other dose. Rows were taken by chance; any-hit rate near 1%.

| canonical_smiles | TRPML1 blocker | PINK1 expr mod | D2 ag | TRPML1 agonist | Six1-Eya2 inh | D2 PAM |
| --- | --- | --- | --- | --- | --- | --- |
| Cc1cc2ncn(/N=C/c3ccc(-c4ccccc4)o3)c2cc1C | -2.8 | 5.9% | 11.2 | 2.7 | -1.7 | 1.0 |
| CCC(C)c1ccc(NC(=S)NN2CCOCC2)cc1 (stereo not given) | -8.9 | -0.7% | -5.1 | -0.3 | -0.2 | -7.3 |
| COC(=O)C1=C(C)Nc2nc3ccccc3n2C1c1ccccc1F (stereo not given) | 38.6 | 11.6% | 5.5 | 3.2 | 3.4 | 3.6 |
| CCOC(=O)C1CCN(C(=O)c2[nH]c(C(F)(F)F)nc2-c2ccccc2)CC1 | x | 0.6% | -2.3 | -0.5 | -7.2 | -3.7 |
| CSc1ccccc1C(=O)NCc1ccc2c(c1)OCO2 | 28.4 | 2.9%[38.3 µM] | -4.6 | 0.8 | 3.5 | 4.4 |
| CC1Cc2ccccc2N1C(=O)CSc1nnc(Cn2nnc3ccccc32)n1C (stereo not given) | 33.0 | -0.7% | -4.0 | 0.1 | 10.4 | -0.9 |
| Cc1c(C)c2cc(Cl)c(OCC(=O)Nc3ccccn3)cc2oc1=O | -11.2 | 2.8% | 0.2 | -0.2 | 6.9 | -9.4 |
| C=CCn1c(=O)[nH]c(=O)c2c(N)c(C(=O)c3ccc(OC)cc3)sc21 | 9.9 | 11.8% | 2.6 | 1.8 | -15.8 | -10.7 |
| COC(=O)c1sc2cccc(F)c2c1S(=O)(=O)Nc1cc(C)c(Cl)cc1OC | -8.8 | -0.3% | x | 0.7 | x | x |
| CCC(C)NC(=O)CCCN1C(=O)CCn2nc(-c3cccn3C)cc21 (stereo not given) | 15.7 | 2.1% | x | 0.4 | x | x |
| CN1C(=O)CC(C(=O)Nc2ccc(C(=O)O)cc2)SC1=Nc1ccc(Cl)cc1 (stereo not given) | 16.8 | -0.7% | x | 0.3 | x | x |
| CCOC(=O)c1cccc2c1N[C@@H](c1ccc(F)cc1)[C@H]1CC=C[C@@H]21 | 13.6 | 1.6% | x | 1.0 | x | x |
| CC1CCCN(C(=O)COC(=O)CNC(=O)c2ccc(Br)cc2)C1 (stereo not given) | 3.8 | -0.1% | -0.8 | 0.3 | 5.7 | 1.0 |
| COC(=O)c1sccc1NC(=O)Nc1ccccc1F | -7.2 | -0.7% | -4.4 | 2.0 | -5.0 | -5.1 |
| COc1ccc(Cl)cc1NC(=O)C1(c2cccs2)CCOCC1 | x | 1.0% | 0.7 | x | 4.8 | 3.3 |
| Cc1ccc(S(=O)(=O)Nc2ccccn2)cc1[N+](=O)[O-] | -9.1 | 0.2% | -5.0 | -0.4 | -4.4 | 2.1 |
| COc1ccc(C)cc1Nc1nc2c(S(=O)(=O)c3cccc(Cl)c3)nnn2c2ccsc12 | -9.8 | -0.7% | x | 1.3 | x | x |
| CC(=O)c1cccc(S(=O)(=O)Nc2c(C)nn(C)c2C)c1 | -7.0 | -0.8% | -4.8 | 0.0 | -0.8 | -3.8 |
| COc1ccc(C(=O)NCC(c2cccs2)S(=O)(=O)c2ccc(C)cc2)cc1 (stereo not given) | 13.4 | 2.2% | x | 0.5 | x | x |
| Cc1cc(C)n(C(=O)CNC(=O)Cc2ccccc2)n1 | 11.5 | 2.6%[38.3 µM] | 1.1 | 2.8 | 4.8 | -6.2 |
| COc1cc2c(cc1OC)-c1cc(Nc3ccc(N(C)C)cc3)nc(=O)n1CC2 | -2.5 | 1.7% | 2.1 | 1.6 | -68.5* | -0.3 |
| COc1ccc(CN(C(=O)c2snc(C(N)=O)c2N)C(C(=O)NC(C)(C)C)c2ccco2)cc1 (stereo not given) | -4.4 | 0.4%[38.3 µM] | -2.9 | 0.7 | -1.0 | -7.2 |
| COc1ccc(CCNC(=O)c2ccc3c(c2)N(Cc2ccc(C)cc2)CCS3)cc1OC | 12.8&-4.0 | 2.8%&6.5% | -5.2 | 1.9&0.6 | -20.7 | -7.8 |
| CCOc1cc([C@H]2[C@@H]3CCCC[C@]3(O)CCN2CC(=O)NCc2ccco2)ccc1O | 2.3 | 1.9% | -1.8 | -0.6 | -2.0 | -3.7 |
| CC(C(=O)NCc1ccccc1Cl)n1cc([N+](=O)[O-])cn1 (stereo not given) | 29.1 | 1.7% | -4.0 | 0.7 | -1.3 | -1.2 |
| CC1CCCCN1C(=O)C(=O)c1cn(CC(=O)N2CCCC2)c2ccccc12 (stereo not given) | -4.7 | -0.6% | -0.4 | 1.1 | -7.7 | 0.0 |
| O=C(Nc1ccccc1Cl)c1csc(-c2cccnc2)n1 | 0.5 | -0.5% | -3.9 | -0.6 | -4.4 | -22.9 |
| O=C(Nc1ccc(F)cc1)c1cccc2ccccc12 | 8.2 | 3.8% | -0.4 | -0.5 | 3.9 | -5.9 |
| COc1ccc(-c2nn(-c3ccccc3)cc2C(=O)NC2CC2)cc1 | -4.2 | 0.3% | -1.1 | -0.6 | -1.0 | -8.9 |
| COc1cccc(N2CCN(C3CCCC(C)C3)CC2)c1 (stereo not given) | -5.5 | u | 1.7 | -0.1 | -7.8 | -9.8 |
| CCCCn1c(NC(=O)C2CCCCC2)nc2ccccc21 | -11.7 | 4.8% | -0.3 | 0.4 | 4.3 | 23.2 |
| C=C1CCN([C@@H](C)C(=O)NCc2cc(OC)c(OC)c(OC)c2)S(=O)(=O)c2ccccc21 | -8.7 | 1.0% | -1.0 | 0.3 | -0.2 | -2.2 |
| CC(C)Cc1ccc(C(C)C(=O)Nc2nccs2)cc1 (stereo not given) | 11.4 | x | 1.2 | 10.1 | -1.4 | -0.3 |
| CN(Cc1ccccc1)Cc1c(O)ccc2ccccc12 | -18.0 | 1.6% | 0.8 | -0.8 | 18.8 | 2.3 |
| CC(=O)c1ccc(NC(=O)CN2CCN(c3ncccn3)CC2)cc1 | 35.7 | -2.9% | 46.6* | 0.9 | 2.8 | 21.2 |
| CCOC(=O)C1=C(C)N(CC)C(=S)NC1c1ccccc1OC(F)F (stereo not given) | 4.6 | -2.3% | -2.2 | 3.6 | 9.9 | -1.7 |
| COc1ccc(CCNC(=O)c2ccc(N3CCCC3=O)cc2)cc1 | 8.9 | -0.3% | 0.2 | 0.6 | 5.9 | -2.3 |
| COCCOC(=O)C1=C(C)NC(=O)NC1c1c(Cl)nc2ccccn2c1=O (stereo not given) | 7.9 | 1.5% | -7.5 | -0.7 | 4.8 | -0.7 |
| COc1ccc(Cn2ccc3nc(C)c(C(=O)Nc4ccc(C)c(F)c4)cc3c2=O)cc1 | -0.2 | 7.8% | x | 1.7 | x | x |
| CCN(CC(=O)NC1CCS(=O)(=O)C1)S(=O)(=O)c1ccc(F)cc1 (stereo not given) | 4.9 | 1.0% | 1.4 | 2.2 | 3.1 | -2.7 |
| OC(c1ccccc1)c1nccc2ccccc12 (stereo not given) | -8.9 | -0.8% | -3.6 | 0.1 | 4.5 | -5.9 |
| Cc1ccc(S(=O)(=O)N2CCNC(=O)C2)c(C)c1 | 0.6 | 0.6% | -4.5 | 0.3 | 3.2 | -15.4 |
| O=C(N/N=C/c1ccc(O)cc1)NC12CC3CC(CC(C3)C1)C2 | 35.8 | -0.6% | -1.3 | -0.4 | -10.1 | -2.8 |
| O=C(CCCO)N/N=C/c1ccccc1[N+](=O)[O-] | -17.6 | 2.0% | -1.7 | 0.1 | -0.8 | -4.1 |
| CCOC(=O)C(NC(=O)CC)(Nc1sc(C)c(CC)c1C#N)C(F)(F)F (stereo not given) | -12.8 | 0.9% | -0.7 | -0.2 | 10.8 | -9.8 |
| COc1cc2c(cc1NC(=O)COC(=O)C(CCSC)NC(=O)c1ccccc1Cl)oc1ccccc12 (stereo not given) | -2.9 | 0.2% | 2.7 | -0.4 | -3.0 | 15.5 |
| CC(C)c1ccccc1NC(=O)c1cnccn1 | 5.5 | 4.5%[38.3 µM] | -1.6 | -0.3 | -0.6 | -9.4 |
| CC(=O)Nc1ccc(S(=O)(=O)N[C@@H](C)C(=O)N2CCN(C/C=C/c3ccccc3)CC2)cc1 | 3.2 | -0.7% | -4.3 | -0.4 | 0.0 | -12.4 |
| COc1ccc(/C(C)=N/N2C(C)CCCC2C)c(OC)c1 (stereo not given) | -9.8 | 8.2% | 3.8 | -0.7 | 2.8 | -0.7 |
| Fc1cccc2ncnc(OCc3ccccc3)c12 | -26.8 | 1.2% | -4.2 | 1.3 | 12.0 | -6.7 |
| Cc1ccc(S(=O)(=O)C(NC(=O)c2ccccc2)=C(Cl)Cl)cc1 | -23.2 | u | -3.5 | 0.0 | 4.4 | -9.5 |
| CCCCOc1ccc(CNn2c(C)nc3ccccc3c2=O)cc1 | 27.5 | 29.7%[38.3 µM] | 1.0 | 1.1 | 2.2 | 3.6 |
| CCN(CC(=O)Nc1c(F)cccc1F)C(=O)CCN1C(=O)C2CC=CCC2C1=O (stereo not given) | 33.1 | 2.5% | -0.9 | 0.3 | 1.7 | -7.1 |
| O=C(c1ccccc1)N1CCN(Cc2ccc3c(c2)OCO3)CC1 | 29.4 | 0.2% | -0.3 | 0.4 | 1.0 | -24.6 |
| CC(=O)Nc1ccc(C)cc1-c1nc2ccccc2n(Cc2cccc(Br)c2)c1=O | -1.7 | 0.6% | x | 0.7 | x | x |
| CON(C)C(=O)C[C@@H]1C[C@H](OC(=O)c2ccc([N+](=O)[O-])cc2)CN1C(=O)OC(C)(C)C | 8.9 | -1.0% | -2.2 | -0.7 | -6.4 | 0.7 |
| Cc1c(NC(=O)c2ccco2)c(=O)n(-c2ccccc2)n1C | x | 1.4% | -1.0 | x | 3.2 | 29.9 |

Profiles, quoted from the list. Order of values: TRPML1 blocker, PINK1 expr mod, D2 ag, TRPML1 agonist, Six1-Eya2 inh, D2 PAM
COc1cc2c(cc1NC(=O)COC(=O)C(CCSC)NC(=O)c1ccccc1Cl)oc1ccccc12 (stereo not given) as listed: -2.9, 0.2%, 2.7, -0.4, -3.0, 15.5
Cc1c(NC(=O)c2ccco2)c(=O)n(-c2ccccc2)n1C as listed: x, 1.4%, -1.0, x, 3.2, 29.9
O=C(c1ccccc1)N1CCN(Cc2ccc3c(c2)OCO3)CC1 as listed: 29.4, 0.2%, -0.3, 0.4, 1.0, -24.6
CON(C)C(=O)C[C@@H]1C[C@H](OC(=O)c2ccc([N+](=O)[O-])cc2)CN1C(=O)OC(C)(C)C as listed: 8.9, -1.0%, -2.2, -0.7, -6.4, 0.7

Compound activity deposited in PubChem BioAssay by National Center for Advancing Translational Sciences (NCATS).
